VDR inhibitor – blocks the human vitamin D receptor; P11473; VDR-SRC2-3 peptide fluorescence polarization, 2 h; Potency, µM, inactives show max response, negative = inhibition, usual class: inhibitors; hit rate 0.93% among 400,000; AID 504847; active = well fitted inhibition curve with a large enough effect; inconclusive = small, poorly fitted or top-dose-only effect, or another doubt; inactive = no such curve, though single readings can be large or run the other way; note: series mostly up to about 120 µM
Target sequence (P11473 whole entry, looked up): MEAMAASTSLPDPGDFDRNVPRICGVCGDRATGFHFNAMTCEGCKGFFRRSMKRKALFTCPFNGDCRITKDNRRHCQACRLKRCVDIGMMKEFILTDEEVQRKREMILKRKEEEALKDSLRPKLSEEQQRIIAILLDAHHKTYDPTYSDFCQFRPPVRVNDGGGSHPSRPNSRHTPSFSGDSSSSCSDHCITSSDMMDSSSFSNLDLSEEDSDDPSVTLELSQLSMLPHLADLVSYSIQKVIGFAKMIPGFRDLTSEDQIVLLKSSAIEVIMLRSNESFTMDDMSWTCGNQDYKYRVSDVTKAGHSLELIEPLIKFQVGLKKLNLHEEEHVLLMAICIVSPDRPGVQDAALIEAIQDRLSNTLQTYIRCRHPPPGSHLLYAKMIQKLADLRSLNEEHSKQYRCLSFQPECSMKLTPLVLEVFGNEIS
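FP read-out; VDR + SRC2-3 coactivator peptide; 23 nl compound by pintool; 2 h RT incubation; reagents held at 4 deg C, protected from light.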
Active calls of the source: *; ? = inconclusive; & = joins results of further samples. % is set by controls: 0 for no effect and ±100 for the full control effect; potency is the fitted concentration of half-maximal effect. Not all compounds are listed; rates above refer to the full screens.

SMILES	VDR inhibitor
CCOC(=O)C1CCN(C(=O)CSc2cc(=O)n(CC)c3ccccc23)CC1	7.7%
CC1CCCC(NC(=O)C2CCN(S(=O)(=O)N3CCC4(CC3)OCCO4)CC2)C1C (centres undefined)	14.1%
CCCC(C(=O)NC(C)(C)C)N(C(=O)c1snc(C(N)=O)c1N)c1ccc2c(c1)OCCO2 (centres undefined)	0.5%
Cn1c(=O)n(C)c2cc(NC(=O)CSc3nc4ccccc4c(=O)[nH]3)ccc21	14.6%
COCCNC(=O)C1CCCN(S(=O)(=O)c2ccc3c(ccn3C)c2)C1 (centres undefined)	8.5%
COc1ccc(C2=CC(=O)C[C@H](c3ccc4c(c3)OCO4)C2)cc1	7.9%
O=S(=O)(NCc1c(Cl)cccc1Oc1ccccc1)c1ccccc1	5.2%
COc1ccc(C2=NCCn3c2c2ccc(C(F)(F)F)cc2[n+]3[O-])cc1	0.5%
O=C(CC(c1ccccc1)c1ccccc1O)NCCc1ccccc1 (centres undefined)	-11.2%
O=C(CCC(=O)N1CCOc2ccccc21)Nc1ccccc1Cl	-20.3%
COc1cc(C2CC(=O)N(CC(=O)NCC3CCCO3)c3ccccc3S2)cc(OC)c1OC (centres undefined)	-17.8%
CCc1cc(Br)ccc1NC(=S)NCCc1ccccc1	2.1%
O=C(O)CC(Cc1ccc(Cl)cc1)C(=O)NCc1ccccc1 (centres undefined)	14.4%
Cc1cc(C)cc(N2CCn3c2nc2c3c(=O)n(CCc3ccccc3)c(=O)n2C)c1	12.4%
Cc1ccc(NC(=O)c2ccc3c(c2)OCO3)cc1Cl	0.5%
COC(=O)c1ccc(Nc2cc(C)nc(-c3ccccc3O)n2)cc1	3.2%
CCCc1nnc(NC(=O)Cc2coc3c(C)c(C)ccc23)s1	11.5%
COc1ccc(-c2oc3ccc(-c4ccc(OC)nc4)cc3c2-c2ccc(OC)cc2)cc1	8.6%
Oc1ccc(/C=N/Nc2ncc(Cl)cc2Cl)cc1	18.5%
Clc1ccc2c(NCc3ccccn3)ncnc2c1	-5.8%

Entries from the list above that have an aryl methoxy group (4):
SMILES	VDR inhibitor
COc1ccc(C2=CC(=O)C[C@H](c3ccc4c(c3)OCO4)C2)cc1	7.9%
COc1ccc(C2=NCCn3c2c2ccc(C(F)(F)F)cc2[n+]3[O-])cc1	0.5%
COc1cc(C2CC(=O)N(CC(=O)NCC3CCCO3)c3ccccc3S2)cc(OC)c1OC (centres undefined)	-17.8%
COc1ccc(-c2oc3ccc(-c4ccc(OC)nc4)cc3c2-c2ccc(OC)cc2)cc1	8.6%

The listing continues:
SMILES	VDR inhibitor
CC(C)C(NC(=O)OCc1ccccc1)C(=O)OCC(=O)NCc1ccco1 (centres undefined)	4.1%
NNC(=O)CN1C(c2ccccc2Br)=Nc2ccc(Br)cc2C1c1ccccc1 (centres undefined)	70.8µM*
COC(=O)c1ccccc1Oc1ccc(NC(=O)C(C)(C)CCl)cc1	5.6%
O=C(CSc1ccc2c(c1)OCCO2)Nc1ncc(Cl)cc1Cl	-7.3%
COc1cccc(CNC(=O)CCCn2ncn3c(cc4occc43)c2=O)c1	10.9%&-9.1%
Cc1ccc(C(=O)Nc2ccc3c(c2)nc2n3CCSC2)cc1	-29.3%
Cn1c(=O)n(Cc2ccccc2Cl)c(=O)c2c1nc1n2CCN1c1ccccc1	-7.4%
CSc1nc(-c2ccc(Cl)cc2)nn1C(=O)c1ccco1	-7.4%
c1ccc(N2CCN(c3ccccc3)C2c2cccnc2)cc1	8.6%
N#Cc1cc2cc3c(cc2nc1N1CCCCC1)OCCO3	-4.5%
Cc1ccccc1-c1noc(-c2ccc(NCc3ccco3)c([N+](=O)[O-])c2)n1	9.9%
CC(C(=O)OCC(=O)N(C)C1(C#N)CCCCC1)N1C(=O)c2ccccc2C1=O (centres undefined)	-1.8%
CN(C)Cc1c(C(=O)N/N=C/C=C/c2ccccc2)nnn1-c1nonc1N	-4.9%
COc1ccc2c(c1)OC/C(=C/c1cccs1)C2=O	-27.4%
Cc1ccc(S(=O)(=O)c2cn(CC(=O)Nc3ccccc3C)c3cc4c(cc3c2=O)OCO4)cc1	-13.5%
CCC(C)(C)NC(=O)C(c1ccc(OC)cc1)N(C(=O)CCC(=O)Nc1cc(C)on1)c1cccc(F)c1 (centres undefined)	-9.8%
COC(=O)CCC(=O)N1CCOCCOCCN(C(=O)CCC(=O)OC)CCOCCOCC1	11.4%
COC(=O)Cn1nc(-c2ccc(C)c(S(=O)(=O)N(C)C)c2)c2ccccc2c1=O	5.8%
Cc1ccc(SCCSc2nc(C)cc(=O)[nH]2)cc1	10.4%
CCNC(=O)C1Cc2ccccc2CN1S(=O)(=O)c1ccc(F)cc1 (centres undefined)	-24.9%
CCOc1ccc(C2c3c(oc4cc(C)c(C)cc4c3=O)C(=O)N2c2ccccn2)cc1 (centres undefined)	-1.1%
COc1ccc(Nc2cc(C(=O)NCc3cccs3)c3ccccc3n2)cc1	-9.3%
CC(C)C(NC(=O)COc1ccccc1)C(=O)O (centres undefined)	22.0%
NCCCCC(=O)O	-0.4%&-12.8%&-0.2%
CCn1c(-c2ccco2)nc2ccccc21	-7.6%
Cc1cccc(N2CCN(C(=O)CSc3ccsc3[N+](=O)[O-])CC2C)c1 (centres undefined)	-4.0%
CN1C(=O)C(C)(C)c2cc(S(=O)(=O)N3CCC(C(=O)NCc4ccccc4Cl)CC3)ccc21	4.6%
Cc1ccc(-n2ncc(C(=O)NCCN3CCN(C)CC3)c2C2CCN(C(=O)OC(C)(C)C)CC2)cc1	-11.3%
O=C(O)c1cccc2c1C(=O)c1cccc3snc-2c13	4.0%
O=C1CCNc2cc3ccccc3cc21	?
COc1ccc(N(CC(=O)NCC2CCCO2)C(=O)CCC(=O)Nc2nccs2)c(OC)c1 (centres undefined)	-15.1%
CCOCCc1nnc(NC(=O)C2CCN(C(=O)c3ccco3)CC2)s1	-17.7%
COc1cccc(-c2cc(C(=O)NC3CCCC3)c3ccccc3n2)c1	-7.0%
COc1cccc(C(=O)Cn2c(N3CCOCC3)nc3c2c(=O)n(C)c(=O)n3C)c1	-6.2%
CC(OC(=O)CCOc1ccccc1)C(=O)Nc1ccc(Cl)cn1 (centres undefined)	-5.0%
COc1cccc(CN2CCNC(=O)C2CC(=O)N(C)C2CCCCC2)c1OC (centres undefined)	6.6%
CCCCOCCCNC(=O)c1ccc2c(c1)OCO2	10.9%
Cc1ccc(Cn2c(SCC(=O)N/N=C/c3ccccc3OCC(=O)O)nc3ccccc32)cc1	-19.8%
Clc1cccc(OCc2nnc(-c3ccccc3Br)o2)c1	4.9%
Cc1nc2ccccn2c1C(=O)N/N=C/c1ccc2c(c1)OCO2	3.2%
O=C(CN1C(=O)C2(SCC(=O)N2c2cccc(F)c2)c2ccccc21)NCc1ccccc1Cl (centres undefined)	1.5%
O=C(N/N=C/c1c[nH]c2ccccc12)C1COc2ccccc2O1 (centres undefined)	3.7%
CC(=O)c1c(NCc2ccccc2)nc(=O)n(-c2ccccc2)c1C	1.4%
COc1cccc(NC(=O)COC(=O)Cc2ccc(Cl)cc2)c1	13.3%
Cc1cc(C)c(NC(=O)Cn2cnc3c(oc4ccccc43)c2=O)c(C)c1	0.0%&13.5%
CN(C(=O)COC(=O)c1ccc2c(c1)OCCO2)c1ccccc1	4.2%
CCC(Sc1nc2cc3c(cc2c(=O)n1Cc1ccco1)OCO3)C(=O)Nc1ccccc1OC (centres undefined)	3.5%
CSc1ncc(Cl)c(C(=O)Nc2cc(C)ccc2C)n1	25.3%
CCOC(=O)c1cnn(-c2cccc(Cl)c2)c1N	3.9%
CCCCC(=O)Nc1ccc(NC(=O)c2ccco2)cn1	15.0%
CCOC(=O)[C@H]1[C@H]2COc3cc(OC)ccc3[C@@H]2N2C(=O)N(c3cccc(F)c3)C(=O)[C@@]12C	-3.7%
CCCc1c(O)nc(SCCN(CCC)CCC)[nH]c1=O	-14.5%
CC[C@@H]1C=C(C(=O)O)[C@H](c2ccc(Cl)c(Cl)c2)N1S(=O)(=O)c1ccc(C)cc1	-21.3%
Cc1nc(SCC(=O)Nc2cc(C)on2)c2c(=O)n(C)c(=O)n(C)c2n1	?
Brc1ccc(-c2csc(N/N=C/c3cccnc3)n2)cc1	3.0%
O=C(NC1CCCC1)c1ccc2c(c1)N(Cc1ccccc1Cl)C(=O)c1ccccc1S2	15.1%
CN(C)S(=O)(=O)c1ccc(NC(=O)CSc2nnc(-c3ccco3)n2N)cc1	-8.8%
Cc1nnc(OCc2nc3ccccc3n2C)c2ccccc12	13.3%
Cc1ccccc1-c1nc(-c2ccc(NC(=O)c3ccc(Br)o3)cc2)no1	11.3%
Cc1cccc(C)c1-n1ncc(C(=O)NCCN2CCOCC2)c1C1CCN(C(=O)OC(C)(C)C)CC1	4.4%

Next part, overlapping the part above by seven compounds.
SMILES	VDR inhibitor
Cc1nc(SCC(=O)Nc2cc(C)on2)c2c(=O)n(C)c(=O)n(C)c2n1	?
Brc1ccc(-c2csc(N/N=C/c3cccnc3)n2)cc1	3.0%
O=C(NC1CCCC1)c1ccc2c(c1)N(Cc1ccccc1Cl)C(=O)c1ccccc1S2	15.1%
CN(C)S(=O)(=O)c1ccc(NC(=O)CSc2nnc(-c3ccco3)n2N)cc1	-8.8%
Cc1nnc(OCc2nc3ccccc3n2C)c2ccccc12	13.3%
Cc1ccccc1-c1nc(-c2ccc(NC(=O)c3ccc(Br)o3)cc2)no1	11.3%
Cc1cccc(C)c1-n1ncc(C(=O)NCCN2CCOCC2)c1C1CCN(C(=O)OC(C)(C)C)CC1	4.4%
N#CCCSc1ncnc2c1oc1ccccc12	0.6%
Cc1ccc(-c2nnn(CC(=O)NCC3CC3)n2)o1	13.3%
COc1cccc(CN2CCN(C3CSCCSC3)CC2CCO)c1 (centres undefined)	-14.8%
COc1ccc(C(c2nnnn2CS(=O)(=O)c2ccc(C)cc2)N2CCN(c3ncccn3)CC2)cc1 (centres undefined)	1.1%
CC(C)c1ccc(NC(=O)Cn2c(=O)n(Cc3nc(-c4ccccc4)no3)c(=O)c3cc4c(cc32)OCO4)cc1	10.0%
CC(=O)Nc1ccc(NS(=O)(=O)c2cccc3ccccc23)cc1	7.9%
CN(C)S(=O)(=O)c1ccc(C(=O)NCC2(N3CCCCC3)CCCCC2)cc1	-4.5%
COc1ccc(C(=O)NNC2=CC(=O)CC(C)(C)C2)cc1OC	6.5%
CCCC/C(O)=C1\C(=O)CC(C)(C)CC1=Nc1ccc(N)cc1	16.1%
CN(Cc1nc(-c2ccccc2)no1)C1CCOCC1	-19.7%
COc1ccc(N2CCN(C(=O)c3cn(Cc4ccccc4)nc3-c3cccnc3)CC2)cc1	2.2%
O=C1CSC(c2cn(-c3ccccc3)nc2-c2ccc3c(c2)OCCO3)N1CCN1CCOCC1 (centres undefined)	-9.5%
CCc1ccccc1NC(=O)CN1C(=O)COc2ccc(S(=O)(=O)Nc3ccccc3)cc21	7.8%
COc1ccc(NC(=O)Nc2cnccn2)cc1	3.2%
Cc1c(C=NCCOCc2ccccc2)cnn1C	4.3%
CCc1cc2c(COC(=O)CCNS(=O)(=O)c3cccc(C(F)(F)F)c3)cc(=O)oc2cc1O	-10.1%
Cc1nc2ccccn2c1C(=O)NCc1cccnc1	10.0%
CCOC(=O)c1[nH]c2ccc(OC)cc2c1NC(=S)N1CCN(c2ccc(F)cc2)CC1	-18.0%
COc1ccc(Oc2c(OC)cc([N+](=O)[O-])c3ncccc23)cc1	4.8%
CC(C)C(OC(=O)c1nsc(Cl)c1Cl)C(=O)NC1CCCCC1 (centres undefined)	2.1%
Cc1csc2c(SCC(=O)NNC(=O)C(Cl)Cl)ncnc12	-10.3%
COc1cc(NC(=O)c2ccc(Cl)cc2)c(Cl)cc1NC(=O)c1cccnc1	25.9%
Cc1ccc(CNC(=O)CCCn2c(=O)c3ccccc3n(CC(=O)NC3CCCC3)c2=O)cc1	3.7%
CC(C)N(Cc1nc(-c2ccc(Cl)cc2)no1)C(=O)CCCN1C(=O)c2ccccc2C1=O	-21.4%
CSc1cccc(N2CC(C(=O)N(CC(C)C)c3c(N)n(Cc4ccccc4)c(=O)[nH]c3=O)CC2=O)c1 (centres undefined)	-9.8%
CCOC(=O)CC(=O)CSc1nc2c(C)c(C)ccc2cc1C	11.3%
O=C(COc1ccccc1Cl)NCCCNC(=O)c1ccco1	9.1%
COC(=O)C1=C(N)Oc2cc(C)n(Cc3ccco3)c(=O)c2C1c1cccc(Cl)c1 (centres undefined)	-1.8%
O=C(CCC(=O)OCC(=O)c1ccc(Br)cc1)Nc1ccc(Br)c2cccnc12	0.6%
O=C1CC(NS(=O)(=O)c2cccnc2)CN1c1ccc(F)cc1 (centres undefined)	-8.7%
CC(C)C[C@H](NC(=O)Nc1ccc(S(N)(=O)=O)cc1)C(=O)O	13.0%
Nc1nc(-c2ccc([N+](=O)[O-])cc2)cc(=O)[nH]1	-12.6%
CCN(CC)C(=O)[C@H]1C[C@H](CC(=O)NC/C=C(\C)CCC=C(C)C)C(=O)N2CCc3c([nH]c4cc(-c5ccco5)ccc34)[C@]12C	7.2%
CC(=O)N[C@@H](CC(C)C)C(=O)N[C@@H](CC(C)C)C(=O)N[C@H](C=O)CCCN=C(N)N	0.7%
COC(=O)C=C1CCC2C3CCC4=CC(=O)CCC4(C)C3C(=O)CC12C (centres undefined)	4.6%
FC(F)(F)c1cccc(-c2nc(-c3ccncc3)no2)c1	-13.5%
CC[n+]1c(/C=C/Nc2ccccc2)sc2ccccc21	20.8%
COc1ccc(OC)c(C(O)c2nc3ccccc3n2C)c1 (centres undefined)	-6.0%
CN(C(=O)c1ccc(Cl)c([N+](=O)[O-])c1)C1(C)CCS(=O)(=O)C1 (centres undefined)	10.8%
NNC(=O)CSc1nnnn1-c1ccccc1	-6.4%
O=S1(=O)CCC(n2ncc3c2/C(=C/c2ccccc2)CC3)C1 (centres undefined)	0.8%
N=C1C(c2nc3ccccc3[nH]2)=C(O)CN1c1ccc(CC(=O)O)cc1	-3.8%
O=C(c1ccc(F)cc1)N1CCN(C(=O)c2ccc([N+](=O)[O-])cc2)CC1	-0.9%
COc1cc(-c2nnc(SCC3(c4ccccc4)OCCO3)o2)cc(OC)c1OC	6.3%
